Screens deposited in PubChem BioAssay by several laboratories.
RanGTP-Imp inh: inhibitors of RanGTP-importin-beta interaction, primary screen, biochemical, FRET, CFP-Ran, YFP-importin-beta, homogeneous; cell-free CFP-Ran/YFP-importin-beta FRET ratio; inhibition, % (test concentration not listed); 300,000 compounds, 1.1% hits;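 active = most replicates above 15%; inconclusive = exactly half above 15%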;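 note: 0% = DMSO wells and 100% = Ran loaded with GDP instead of GTP; wells of about 40 µL received 100 nL stock; the first replicate is given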
UCH37 DUB inh: blocks the human deubiquitinase UCH37 | Q9Y5K5 | purified proteasome/UCH37, Ub-AMC cleavage fluorescence | inhibition, % (concentration not given with the values) | 330,000 compounds, 0.33% hits | AID 588478;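 active = mean of two replicates above 20%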;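 note: 0% = compound-free wells with enzyme and 100% = wells lacking proteasome; stock transfer was 100 nL into about 20 µL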
Target sequence (Q9Y5K5 whole entry, looked up): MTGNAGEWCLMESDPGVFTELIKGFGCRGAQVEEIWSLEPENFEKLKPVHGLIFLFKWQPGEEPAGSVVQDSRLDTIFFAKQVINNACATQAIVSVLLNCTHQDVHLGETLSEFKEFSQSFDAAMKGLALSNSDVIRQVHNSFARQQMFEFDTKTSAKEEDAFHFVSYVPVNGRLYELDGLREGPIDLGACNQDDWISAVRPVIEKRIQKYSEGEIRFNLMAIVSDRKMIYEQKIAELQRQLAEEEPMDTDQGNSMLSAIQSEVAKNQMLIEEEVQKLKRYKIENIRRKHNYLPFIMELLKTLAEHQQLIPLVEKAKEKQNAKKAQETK
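Signal – fluorescence, ex 355 nm, em 460 nm · System – Proteasome-bound UCH37 · Input – 0.15 nM proteasome as dispensed · Timing – 30 min preincubation with enzyme, 25 min cleavage at room temperature · Read-out basis – percent inhibition of cleavage signal versus uninhibited and no-proteasome wells · Medium – Tris-HCl pH 7.4 with ATP-MgCl2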
FGF22 binding: binders of recombinant human FGF22 by thermal shift; 340,000 compounds, 1.5% hits; SYPRO orange fluorescence; percent of sucrose octasulfate shift, DMSO zero; calls only at 9.99 µM; AID 651658; Q9HCT0;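 active = melting point raised past a set limit in the mean and every replicate; inconclusive = no clear call; three in four hits are not shown here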
Target sequence (Q9HCT0 whole entry, looked up): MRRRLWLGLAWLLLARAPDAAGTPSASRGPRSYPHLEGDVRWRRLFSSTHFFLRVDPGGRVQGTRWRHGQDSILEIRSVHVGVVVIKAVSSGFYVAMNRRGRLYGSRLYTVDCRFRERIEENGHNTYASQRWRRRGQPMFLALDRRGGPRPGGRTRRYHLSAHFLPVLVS
Vif A3G: HIV-1 Vif–A3G interaction blockers – biochemical, TR-FRET, GST-Vif 1-94, biotin-A3G peptide, dose response retest, primary screen (AID 1117319). 260,000 compounds, 0.57% hits. one-dose inhibition, %; IC50 in µM for titrated hits. TR-FRET GST-Vif / biotin-A3G peptide binding; higher % means a stronger effect; test concentration not given here; strong numbers were not always called active;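 active = above the screen mean plus three standard deviations and confirmed in dose response; inconclusive = results disagree or hit not tested in dose response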;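 note: Vif residues 1-94 fused to GST binding biotinylated APOBEC3G peptide 110-148; 0% = full assay without inhibitor and 100% = GST in place of GST-Vif; retest series ran down from 100 µM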
HNF4A DNA FP: change in binding of human HNF4 alpha to DNA; activity change, % at 10 µM; HNF4a-FITC DNA binding, fluorescence polarization, 1 h; 360,000 compounds, 0.3% hits; AID 1224865; P41235; in the data active = activity change above about 30%, passing the limit was not always enough;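 note: controls were the assay level and a saturating level of protein; the project sought stronger binding though the title names inhibitors; some compounds called inactive have numbers as strong as hits; positive values seem to mean higher polarization but the record does not say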
AF4-AF9 inh: blocks AF4 peptide binding to human AF9 | AlphaScreen, biotin-AF4 peptide binding to FLAG-AF9 | 350,000 compounds, 0.47% hits | AID 651704 | inhibition, % at 10 µM | P42568;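 active = every replicate reaching a set inhibition limit, whatever the replicate mean, cut at about 25% in these data; inconclusive = mean inhibition reaches that limit but some replicates miss it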;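 note: 0% = plate neutral control median and 100% = total signal loss; the record names both 10 and 1 µM as test concentration; the first replicate is given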
Target sequence (P42568 whole entry, looked up): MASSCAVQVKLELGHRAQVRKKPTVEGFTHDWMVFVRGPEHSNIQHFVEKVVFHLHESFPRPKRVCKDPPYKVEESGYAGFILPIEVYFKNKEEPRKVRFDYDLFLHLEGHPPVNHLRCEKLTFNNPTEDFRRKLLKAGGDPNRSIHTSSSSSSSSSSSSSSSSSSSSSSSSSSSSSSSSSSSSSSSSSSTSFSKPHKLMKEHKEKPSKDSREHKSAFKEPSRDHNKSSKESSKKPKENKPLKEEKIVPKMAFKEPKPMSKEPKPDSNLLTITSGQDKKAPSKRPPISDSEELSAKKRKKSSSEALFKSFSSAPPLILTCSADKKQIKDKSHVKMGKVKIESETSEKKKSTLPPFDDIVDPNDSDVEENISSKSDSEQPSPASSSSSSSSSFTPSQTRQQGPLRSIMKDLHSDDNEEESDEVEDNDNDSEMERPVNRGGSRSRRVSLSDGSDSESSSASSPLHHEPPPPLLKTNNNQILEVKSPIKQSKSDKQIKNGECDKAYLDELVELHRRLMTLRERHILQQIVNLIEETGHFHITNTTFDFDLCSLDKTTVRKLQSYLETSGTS
Ecoli growth: inhibitors of Escherichia coli growth; OD600 absorbance (no concentration beside the values); 330,000 compounds, 0.21% hits; OD600, 23 h; hits give low values;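 active = OD600 absorbance below the run mean of sample wells minus 3.6 SD, in any replicate, cut at about 0.56 in these data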;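 note: stock transfer was 300 nL into about 60 µL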
Starred values were filed as active, the others as inactive; i = inactive; ? = inconclusive; . = no result given; & = joins results of further samples. An excerpt; count on the stated rates, not on these rows.

SMILES	RanGTP-Imp inh	UCH37 DUB inh	FGF22 binding	Vif A3G	HNF4A DNA FP	AF4-AF9 inh	Ecoli growth
COC(=O)Cn1nnc2c(cnn2-c2ccccc2)c1=O	5.3	5.1	.	.	0.7	-1.6	0.73
COc1ccc(NC(=O)CSc2nnc(Cc3cccn3C)n2-c2ccc(C)cc2)cc1OC	4.4	1.2	.	?	-0.2	.	0.67
O=S(=O)(Nc1cccc(-c2ccc3nncn3n2)c1)c1ccccc1F	4.9	1.3	i	4%	-2.0	-10	0.63
CC(C)N=C(N)N=C(N)Nc1ccc(Cl)cc1	.	0.9	i	.	-1.8	-5.5	0.64
COc1ccccc1Cn1nnc2c(=O)[nH]c(C3CCN(C(=O)c4ccc(C)cc4)CC3)nc21	5.0	-0.4	.	-3%	3.0	.	0.75
Cc1cc(C)cc(OCC(=O)NNC(=O)c2cc(C)[nH]n2)c1	-1.4	0.0	.	9%	4.2	.	0.75
COc1cccc2cc(CC(=O)c3ccc(C)cc3C)c(=O)oc12	?	-0.1	i	-13%	-0.9	3.8	0.67
CS(=O)(=O)N(CC(=O)N1CCCCCC1)Cc1ccc(Cl)cc1	-2.6	3.1	.	13%	2.4	.	0.66
N#Cc1nc(COc2ccccc2Cl)oc1N1CCCC1	-2.2	4.6	i	-7%	-1.3	26*	0.69
CC1CCC(N(C(=O)c2csnn2)C(C(=O)NC(C)(C)C)c2cccnc2)CC1 (centres undefined)	4.6	-2.7	i	22%	4.4	2.3	0.73
Cc1c(C(=O)NCC2COc3ccccc3O2)oc2ccc(S(=O)(=O)N(C)C3CCCCC3)cc12 (centres undefined)	4.4	1.4	.	-1%	-3.4	-1.1	0.7
CCOC(=O)C1CCN(C(=O)COc2ccc(S(=O)(=O)NC(C)C)cc2)CC1	1.1	3.5	.	28µM*	1.3	.	0.71
O=C(Nc1ccc(NC(=O)C2CCCCC2)cn1)c1ccco1	-1.8	0.5	.	-1%	-1.0	.	0.68
COc1ccc(CC(=O)NCc2nnc(SCC(=O)Nc3ccccc3)n2C)cc1	?	-2.2	i	2%	-2.8	-0.7	0.68
Cc1cccn2c(=O)c3cc(C(=O)N4COCC4(C)C)n(C)c3nc12	-4.3	-379	.	0%	3.0	.	0.69
Cc1onc(-c2ccccc2Cl)c1C(=O)OCC(=O)N1CCC(C)CC1	.	1.4	i	.	-2.9	-16	0.69
O=C(CCN1CCOCC1)NCc1ccccc1	2.5	2.4	i	.	4.0	-2.7	0.71
N/C(=N\OC(=O)COc1ccc2ccccc2c1Br)c1ccncc1	-4.1	6.9	.	-3%	.	.	0.66
Cc1ccc(SCCC(=O)Nc2ccc(Br)c(C)c2)cc1	-1.5	1.2	i	.	-3.8	-0.5	0.64
CCS(=O)(=O)N1CCC(c2nc3ccccc3[nH]2)CC1	-1.7	3.7	i	-4%	3.1	4.8	0.72
CCOc1ccccc1CN1CCN(Cc2cccc3nonc23)CC1CCO (centres undefined)	.	5.4	i	10%	-2.7	3.9	0.74
CCNS(=O)(=O)c1ccc2c(c1)n(C)c(=O)n2C	1.2	0.6	.	15%	0.4	.	0.72
CCOc1ccc(S(=O)(=O)NCCC(=O)N2CC(C)CC(C)C2)cc1 (centres undefined)	.	1.8	i	3%	-1.8	-15	0.64
COc1ccc(/C=N/NC(=O)OC(C)(C)C)cc1OC	-2.3	.	.	11%	4.7	.	.
CCN(C1CCS(=O)(=O)C1)S(=O)(=O)c1ccc(OC)c(OC)c1 (centres undefined)	-0.9	2.5	i	4%	4.8	0.2	0.69
Cc1ccccc1CN1CCN(C(=O)[C@H]2O[C@@H](n3cnc4c(N)ncnc43)[C@H](O)[C@@H]2O)CC1	.	.	i	.	-0.7	-3.4	.
O=C(COC(=O)c1ccc(Cl)cc1[N+](=O)[O-])NC(=O)c1ccccc1	0.0	2.3	i	.	0.4	-0.4	0.64
CCOc1ccc(C(=O)NCC(=O)N2CCc3ccccc3C2)cc1OCC	-0.4	1.6	i	-9%	1.8	-4.8	0.71
COc1ccc2c(CSc3nc4nc(C)cc(C)n4n3)cc(=O)oc2c1	1.9	-2.2	.	-7%	-2.8	.	0.76
CC(C)CC(=O)Nc1cccc(NC(=O)CC(C)C)n1	?	-1.1	i	21%	-1.2	-1.4	0.68
CN(CC(=O)NC1CC1)S(=O)(=O)c1cc(Cl)ccc1Cl	5.0	1.5	i	.	1.7	0.4	0.71
CCCc1nc2c3ccccc3ccn2c1Cc1cccc(F)c1	.	.	i	.	2.2	-3.0	.
CC(Sc1nnc(-c2ccc(OC(F)F)cc2)n1N)C(=O)NCC1CCCO1 (centres undefined)	4.0	-0.4	i	.	3.5	-2.3	0.7
CN(Cc1ccccc1)C(=O)c1[nH]cnc1C(=O)N[C@@H](CCCCNC(=O)OC(C)(C)C)C(=O)OC(C)(C)C	7.4	3.6	.	.	-6.7	.	.
CSCCC(NC(=O)/C(=C/c1ccco1)NC(=O)c1ccco1)C(=O)O (centres undefined)	7.0	6.4	i	.	1.0	-3.6	0.67
O=S(=O)(/N=C(/c1ccccc1)N1CCCCCC1)c1ccccc1	-3.9	.	i	9%	0.9	-1.0	.
CCOC(=O)C(=O)Nc1nc(-c2ccc3c(c2)CCN3C(=O)C2CC2)c(C)s1	-0.3	.	i	-3%	0.6	2.0	.
C[C@@H]1CN([C@@H](C)CO)C(=O)CCCn2nncc2CO[C@@H]1CN(C)S(=O)(=O)c1ccc(Cl)cc1	.	.	i	0%	1.0	-0.4&-0.8&-0.3	.
O=C1N[C@@H](Cc2ccccc2)C(=O)N2[C@@H]1C[C@]1(Br)c3ccccc3N(S(=O)(=O)c3ccccc3)[C@H]21	2.0	3.5	i	.	.	4.7	.
Cc1nc2ccc(C(=O)Nc3cccc(NS(C)(=O)=O)c3)cn2c1N(C)C(=O)CCc1ccccc1	.	.	i	.	0.9	0.2	.
Cc1cc(C)c(S(=O)(=O)NC2CC(C)(C)NC(C)(C)C2)cc1Br	-1.3	4.0	i	.	0.5	1.9	0.71
COc1ccc(C(=O)NCC(=O)OCC(=O)NC(=O)c2ccc(C(C)(C)C)cc2)cc1OC	.	4.6	i	-8%	-4.2	4.0	0.68
Cc1ccc(CS(=O)Cc2ccc(C(=O)NCCCc3ccccc3)o2)cc1 (centres undefined)	.	.	i	-2%	-1.0	-6.9	.
CCOC(=O)CSc1ccc(S(=O)(=O)N(CC)CC)cc1[N+](=O)[O-]	-3.4	0.2	i	-3%	3.9	1.6	0.67
COc1ccc(NC(=O)c2c[nH]n3c(=O)cc(C4CCN(C(=O)OC(C)(C)C)CC4)nc23)cc1Cl	-2.4	6.1	i	14%	-2.9	2.8	0.66
NS(=O)(=O)c1ccc(Cl)cc1[N+](=O)[O-]	1.4	1.9	i	-12%	3.3	-4.0	0.57
C/C(=N\OCC(=O)Nn1c(C)nc2ccccc2c1=O)c1cccs1	2.2	.	i	5%	-0.8	-2.0	.
COc1ccc(S(=O)(=O)c2ccccc2)cc1NS(=O)(=O)c1cccc(C(=O)O)c1	.	5.7	i	.	-1.5	0.6	0.7
CCOC(=O)[C@H]1[C@H]2COc3ccc(Cl)cc3[C@@H]2N2C(=O)c3cc(C)ccc3NC(=O)[C@@]12C	.	4.7	i	.	3.7	0.0	.
COC(=O)[C@H](CCSC)NC(=O)Cn1cnc2c(NCc3ccccc3)ncnc21	.	0.1	i	.	1.1	-2.0	0.69
COc1cccc(CNC(=O)CSc2nnc3c(n2)[nH]c2ccccc23)c1	7.9	4.2	i	.	-1.9	0.8	0.69
COc1ccccc1CC(=O)NNS(=O)(=O)c1cccc([N+](=O)[O-])c1	2.3	2.2	i	.	7.0	3.0	0.68
CCN(CC)CCn1c(=N)n(CC(O)COc2cccc(C)c2)c2ccccc21 (centres undefined)	2.9	3.9	.	12%	1.3	7.8	0.65
Cn1c(=O)n(C)c2cc(C(=O)O)ccc21	9.7	2.6	.	-4%	-2.7	.	0.69
O=C(CNC(=S)N(Cc1ccccc1)Cc1cccnc1)NCCc1ccccc1	3.1	3.5	.	.	0.5	.	0.69
CCOc1ccc(NC(=O)CN(C)C(=O)CN2C(=O)C3CC=CCC3C2=O)cc1OCC (centres undefined)	?	-2.4	i	-2%	-2.1	-0.2	0.64
CCOC(=O)CN(C(=O)COc1nc(-c2ccccc2)cc(C)c1C#N)c1cccc(OC)c1	4.4	-0.3	i	-1%	2.2	-3.6	0.69
COc1ccc(C(OC(=O)c2ccco2)C(=O)NC2CCCC2)cc1 (centres undefined)	-12	-0.2	i	.	-0.8	-5.6	0.7
O=C(Oc1c(Cl)cc(Cl)c2cccnc12)N1CCCCC1	-1.1	3.1	.	-2%	-0.4	.	0.69
C=CCNc1nc(N2CCOCC2)c(C#N)c2c1CN(C)CC2	96*	-21	.	4%	-3.7	.	0.71

Reformatted with values under each structure: entries from further up.
Values in the order: RanGTP-Imp inh, UCH37 DUB inh, FGF22 binding, Vif A3G, HNF4A DNA FP, AF4-AF9 inh, Ecoli growth
> CC(C)N=C(N)N=C(N)Nc1ccc(Cl)cc1
 : ., 0.9, i, ., -1.8, -5.5, 0.64
> Cc1cc(C)cc(OCC(=O)NNC(=O)c2cc(C)[nH]n2)c1
 : -1.4, 0.0, ., 9%, 4.2, ., 0.75
> CC(Sc1nnc(-c2ccc(OC(F)F)cc2)n1N)C(=O)NCC1CCCO1 (centres undefined)
 : 4.0, -0.4, i, ., 3.5, -2.3, 0.7
> O=S(=O)(/N=C(/c1ccccc1)N1CCCCCC1)c1ccccc1
 : -3.9, ., i, 9%, 0.9, -1.0, .

(more compounds)
SMILES	RanGTP-Imp inh	UCH37 DUB inh	FGF22 binding	Vif A3G	HNF4A DNA FP	AF4-AF9 inh	Ecoli growth
N#Cc1ccccc1OCCn1cncn1	4.5	3.2	i	.	-4.7	12	0.65
CC(=O)c1ccc(C(=O)N2CCc3c([nH]c4ccccc34)C2c2cccc(C)n2)s1 (centres undefined)	2.0	1.6	i	1%	2.9	11	0.67
COc1ccc(N(Cc2ccccc2)S(=O)(=O)c2cccc(C(=O)Nc3ncccc3C)c2)cc1	.	.	i	1%	3.5	1.7	.
CC(C)(C)C(c1nc2ccccc2[nH]1)n1c(-c2ccsc2)nc2ccccc21 (centres undefined)	.	.	i	.	-3.5	1.7	.
O=C(c1ccc(F)cc1)n1c(=S)nc2ccccn21	3.0	2.0	i	11%	4.9	37*	0.67
C/C(=N/NC(=O)CNC(=O)c1ccncc1)c1ccc(Cl)cc1	5.9	.	i	8%	6.3	0.4	.
CS(=O)(=O)N1CCN(c2ccccc2NC(=O)CSc2nnc(-c3ccco3)o2)CC1	4.2	4.2	.	14%	-0.4	.	0.73
COc1ccc(CCNC(=O)C(=O)NCC2OCCN2S(=O)(=O)c2ccc(Cl)cc2)cc1OC (centres undefined)	2.7	4.7	i	.	-0.5	-9.2	0.81
Cc1noc(C)c1C(=O)OCC(=O)c1c(N)n(CC(C)C)c(=O)n(C)c1=O	9.7	0.9	.	1%	-1.6	.	0.69
Cc1cc(C(C)(C)C)cc(S(=O)(=O)NCCc2ccncc2)c1C	3.6	0.7	i	3%	0.8	2.1	0.66
O=C(Nc1ccccc1C(=O)N/N=C/c1ccc(O)cc1)c1ccccc1	8.8	.	i	?	-0.7	.	.
CCOC(=O)CN1C=C(c2ccc3ccccc3n2)C(C[N+](=O)[O-])c2ccccc21 (centres undefined)	-45	-7.7	.	19%	-33	.	0.73
O=C(N/N=C/c1ccc[nH]1)c1cccc(Br)c1	-2.6	.	.	-7%	-3.3	.	.
